Pin1 inh – blocks the human prolyl isomerase Pin1; Q13526; Pin1 FP peptide displacement, HiFluor488, 10 min; Potency, µM (titrated, usually from 115 µM), without a hit: at the highest dose activity, negative = inhibition, usual class: inhibitors; 390,000 tested, 0.009% active; active = well fitted inhibition curve with a large enough effect in the polarisation, with a control signal flat, not every such curve was filed as active; inconclusive = small, poorly fitted or top-dose-only effect, or effect the other way, or a change in a side signal; inactive = no such curve, though single readings can be large or run the other way; the % refers to the polarisation; note: potency is the fitted concentration of half-maximal effect
Target sequence (Q13526 whole entry, looked up): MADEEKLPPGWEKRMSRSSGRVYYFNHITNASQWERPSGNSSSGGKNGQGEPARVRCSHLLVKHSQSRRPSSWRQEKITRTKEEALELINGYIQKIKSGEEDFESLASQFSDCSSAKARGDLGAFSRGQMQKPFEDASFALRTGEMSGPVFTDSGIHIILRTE
Tb PGK inh – inhibitors of T. brucei phosphoglycerate kinase; P07378; PGK/GAPDH coupled, Kinase-Glo luminescence, 60 min; Potency, µM (titrated, usually from 57.5 µM), inactives show top-dose activity change, negative = inhibition, actives largely listed as inhibitors; 380,000 tested, 0.043% active; AID 602233; note: potency is the fitted concentration of half-maximal effect; nearly all actives have a fitted effect of over 60% in size
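Recombinant glycosomal PGK reaction used 1,3-bisphosphoglycerate generated in-well by GAPDH (100nM final) in 100mM TEA pH 7.6, 5mM MgCl2, 0.01% Tween-20. After 60 minutes at room temperature, ATP was read by Kinase-Glo Plus luminescence end-point.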
GLS inhibitor – glutaminase GLS (human) inhibition | O94925 | 410,000 tested, 0.21% active | AID 624170 | GLS enzymatic activity, qHTS titration | Potency, µM (titrated, usually from 45.5 µM), for inactives: at the top dose activity change, negative = inhibition, most hits filed as inhibitors; note: potency is the fitted concentration of half-maximal effect
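Read-out is an Amplex red fluorescence increase coupled through glutamate oxidase and HRP, measured before and after 30 min room-temperature incubation. hKGA is in 45 mM KH2PO4 (pH 8.2) with 0.02% Tween-20; glutamine added as 1mM solution.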
PI4K2A inh – inhibitors of human PI4K2A. 420,000 tested, 0.13% active. purified PI4K2A, ADP-Glo luminescence, 1 h; hits give low values. Q9BTU6. activity change, negative = inhibition, % at 76.9 µM; in the data active = activity change below about -50%; inconclusive = mostly about -30% to -49%;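 note: -100% = wells without enzyme as full effect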
Target sequence (Q9BTU6 whole entry, looked up): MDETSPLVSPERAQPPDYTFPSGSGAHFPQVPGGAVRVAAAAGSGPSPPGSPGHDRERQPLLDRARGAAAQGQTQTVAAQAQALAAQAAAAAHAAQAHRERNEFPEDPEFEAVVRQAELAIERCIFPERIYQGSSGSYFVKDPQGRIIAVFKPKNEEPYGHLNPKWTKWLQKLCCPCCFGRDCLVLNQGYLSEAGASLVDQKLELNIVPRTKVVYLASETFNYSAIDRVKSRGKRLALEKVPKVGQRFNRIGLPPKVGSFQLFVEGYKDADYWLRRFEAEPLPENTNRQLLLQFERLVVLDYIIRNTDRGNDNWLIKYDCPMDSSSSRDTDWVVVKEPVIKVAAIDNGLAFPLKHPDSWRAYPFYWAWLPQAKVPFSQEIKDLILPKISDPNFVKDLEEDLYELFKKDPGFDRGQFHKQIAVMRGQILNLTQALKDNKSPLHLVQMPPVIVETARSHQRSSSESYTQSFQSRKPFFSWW
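ADP-Glo luminescence measured ADP generated by PI4K2A enzyme (4 ug/mL before mixing) with 1.2 mM PI substrate (pre-mix) and 300 microM ATP (pre-mix). Tris pH7.5 buffer with MgCl2, Triton X-100; 1 h reaction at ambient temperature.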
* marks the source's active call; other numbers are inactive results; i = inactive; u = inconclusive; x = no result given; & = joins results of further samples; [ ] = remark or other dose. Unless noted, calls come from the whole dose curve; as a rule, active = well fitted curve in the direction sought with a large enough effect; inconclusive = small, poorly fitted or top-dose-only effect, or another doubt; inactive = no such curve, though single readings can be large; an effect the other way counts as inactive or inconclusive. Unless noted, % is set by controls: 0 for no effect and ±100 for the full control effect.

Codes – A = Pin1 inh; B = Tb PGK inh; C = GLS inhibitor; D = PI4K2A inh
Cc1c(Cl)cnc(NC(=O)COC(=O)c2ccc(S(=O)(=O)NCc3ccco3)cc2)c1Cl
  A: 9%; B: 1%; C: -12%; D: -9
O=C(Nc1nnc(C2CC2)s1)C1CC(=O)N(c2ccc3c(c2)OCCO3)C1 (stereo unspecified)
  A: -7%; B: -24%; C: -17%; D: -1
CC(=O)c1ccc(NC(=O)c2cnsn2)cc1
  A: 0%; B: -10%; C: -19%; D: -2
CCc1ccccc1N/N=C(/C)c1c(O)cc(C)oc1=O
  A: -7%; B: -9%; C: 11µM*; D: 5
C/C(=N\NC(=O)c1ccc(NS(=O)(=O)c2cccs2)cc1)c1ccccn1
  A: 6%; B: 0%; C: -10%; D: -2
O=C(O)[C@H](O)[C@@H](O)C(=O)O
  A: -8%; B: 8%; C: 4%; D: -2
C1N2CN3CN1CN(C2)C3
  A: -2%; B: 7%; C: 1%&0%; D: 2&-2
Cc1noc(C)c1S(=O)(=O)Nc1cccc(C(F)(F)F)c1
  A: 5%; B: 4%; C: -2%; D: -4
CCCCOc1ccc2c(c1)/C(=C(\C(Cl)=C(Cl)Cl)[N+](=O)[O-])N2
  A: u; B: i; C: -8%; D: -3
O=C(COC(=O)c1cc([N+](=O)[O-])ccc1NCCO)Nc1ccc2c(c1)OCO2
  A: 0%; B: -9%; C: 0%; D: -1
O=C(O)CCC(=O)C(=O)O
  A: x; B: x; C: -15%; D: x
CCOC(=O)c1cc(N2CCCCC2)nc2ccccc12
  A: -2%; B: i; C: -13%; D: 6
COC(=O)c1c(SCC(=O)NC2CCCCC2)[nH]c2ccccc2c1=O
  A: 63%[activator]; B: -5%; C: -12%; D: -3
CC1CN(C2CC(C)(C)NC(C)(C)C2)CCC1=O (stereo unspecified)
  A: -4%; B: 4%; C: 1%; D: -2
CSc1ccc(Cl)c(C(=O)OCC(=O)NCc2ccco2)c1
  A: u; B: u; C: -11%; D: -19
O=C(Cc1c(Cl)cccc1Cl)OCC(=O)N1CCOCC1
  A: -14%; B: 2%; C: -1%; D: 4
Cc1ccc(OCc2nnc(SCC(=O)Nc3ccc4c(c3)OCCO4)n2Cc2ccco2)cc1
  A: 15%; B: 4%; C: 9%; D: -11
COc1ccc(C(=O)COC(=O)[C@H](C)NS(=O)(=O)c2ccc(NC(C)=O)cc2)cc1OC
  A: -1%; B: i; C: 0%; D: -4
CCN(CC)S(=O)(=O)c1cc(C(=O)n2cccn2)c(Cl)cc1Cl
  A: -2%; B: x; C: -4%; D: 0
c1ccc(C(c2nnnn2C2CCCCC2)N2CCc3ccccc3C2)nc1 (stereo unspecified)
  A: u; B: x; C: 9%; D: -25
Cc1oc2c(F)c(F)c(F)c(F)c2c1S(=O)(=O)Nc1cccc(C(F)(F)F)c1
  A: u; B: -13%; C: -16%; D: -6
C=CCn1c(SCC(=O)NCc2ccco2)nnc1-c1ccc2ccccc2n1
  A: u; B: -14%; C: 5%; D: -2
CCCCNC(=O)COC(=O)c1c2c(nc3ccccc13)CCC2
  A: u; B: -9%; C: 136%[activator]; D: -10
C(=C\c1ccccc1)/CN1CCN(C(c2ccccc2)c2ccccc2)CC1
  A: 3%; B: -7%; C: 7%; D: -3&4&2
Cc1cc(C)c(S(=O)(=O)Nc2cccc(S(=O)(=O)N3CCOCC3)c2)c(C)c1
  A: 0%; B: -7%; C: 7%; D: -2
COC(=O)C1=C(C)Nc2nnnn2C1c1cccnc1 (stereo unspecified)
  A: -12%; B: -6%; C: 15%; D: 11
OCc1cccnc1
  A: x; B: x; C: 0%; D: 1
CC1CCCC(NC(=O)CSc2nnc(C(F)(F)F)n2C)C1C (stereo unspecified)
  A: 2%; B: -4%; C: -6%; D: 2
O=C(O)COCC(=O)Nc1ccc(OCCc2ccccc2)cc1
  A: -5%; B: -7%; C: 0%; D: 3
COc1cc(S(=O)(=O)Nc2c(C)cc(C)cc2C)ccc1Cl
  A: u; B: -6%; C: 0%; D: -2

A draw from above in order of number of heavy atoms, low to high:
Codes – A = Pin1 inh; B = Tb PGK inh; C = GLS inhibitor; D = PI4K2A inh
OCc1cccnc1
  A: x; B: x; C: 0%; D: 1
CC1CN(C2CC(C)(C)NC(C)(C)C2)CCC1=O (stereo unspecified)
  A: -4%; B: 4%; C: 1%; D: -2
COC(=O)C1=C(C)Nc2nnnn2C1c1cccnc1 (stereo unspecified)
  A: -12%; B: -6%; C: 15%; D: 11
O=C(Cc1c(Cl)cccc1Cl)OCC(=O)N1CCOCC1
  A: -14%; B: 2%; C: -1%; D: 4
CSc1ccc(Cl)c(C(=O)OCC(=O)NCc2ccco2)c1
  A: u; B: u; C: -11%; D: -19
CC1CCCC(NC(=O)CSc2nnc(C(F)(F)F)n2C)C1C (stereo unspecified)
  A: 2%; B: -4%; C: -6%; D: 2
CCCCNC(=O)COC(=O)c1c2c(nc3ccccc13)CCC2
  A: u; B: -9%; C: 136%[activator]; D: -10
Cc1cc(C)c(S(=O)(=O)Nc2cccc(S(=O)(=O)N3CCOCC3)c2)c(C)c1
  A: 0%; B: -7%; C: 7%; D: -2
C=CCn1c(SCC(=O)NCc2ccco2)nnc1-c1ccc2ccccc2n1
  A: u; B: -14%; C: 5%; D: -2
COc1ccc(C(=O)COC(=O)[C@H](C)NS(=O)(=O)c2ccc(NC(C)=O)cc2)cc1OC
  A: -1%; B: i; C: 0%; D: -4
Cc1ccc(OCc2nnc(SCC(=O)Nc3ccc4c(c3)OCCO4)n2Cc2ccco2)cc1
  A: 15%; B: 4%; C: 9%; D: -11

Additional results follow:
Codes – A = Pin1 inh; B = Tb PGK inh; C = GLS inhibitor; D = PI4K2A inh
CN1CCCN=C1/C=C/c1cccs1
  A: 0%; B: -5%; C: 8%; D: -5&1
S=c1[nH]nc(-c2ccccc2Cl)n1Cc1ccccc1
  A: 4%; B: 0%; C: -19%; D: -1
CC1CCN(S(=O)(=O)c2ccc3c(ccc(=O)n3CC(=O)NCc3ccccc3)c2)CC1
  A: -8%; B: i; C: -8%; D: 0
CCOc1ccc(/C=C/c2nc(C#N)c(N3CCC(C)CC3)o2)cc1
  A: 1%; B: i; C: 8%; D: -8
CCC(C)c1ccccc1OCCCNC1CCCC1 (stereo unspecified)
  A: -10%; B: i; C: -11%; D: 6
CCN(CC)C(=O)COC(=O)c1cc(-c2ccco2)nc2ccccc12
  A: u; B: -16%; C: 16%; D: -14
CC1CN=C(N(Cc2ccccc2)C(=O)Nc2ccccc2)S1 (stereo unspecified)
  A: 3%; B: -15%; C: 15%; D: 0
O=C1CCCC(=O)C1=C1SCCCS1
  A: 2%; B: -2%; C: 1%; D: -2
CC(C)Cc1nnc(NC(=O)Cc2cccs2)s1
  A: 38%[activator]; B: -10%; C: 0%; D: -3
COC(=O)C1=NN(c2cccc3ccccc23)C2C(=O)N(c3ccccc3OC)C(=O)C12 (stereo unspecified)
  A: -2%; B: -10%; C: 0%; D: -6
COc1cc(NC(=O)C(CC(C)C)N2Cc3ccccc3C2=O)cc(OC)c1 (stereo unspecified)
  A: 2%; B: -7%; C: 5%; D: 0
Nc1ccn([C@H]2CS[C@@H](CO)O2)c(=O)n1
  A: 4%; B: 5%; C: 2%; D: -7
CC(C)CC(C(=O)NCCc1ccccc1)N1Cc2ccccc2C1=O (stereo unspecified)
  A: 1%; B: 1%; C: 4%; D: -9
N#Cc1c(SCC(=O)Nc2cccc(F)c2)sc2c(O)cc(=O)[nH]c12
  A: 6%; B: -13%; C: -13%; D: 1
O=C(N/N=C/c1ccc(Cl)cc1)c1sccc1OCc1ccc(F)cc1
  A: 10%; B: -7%; C: 7%; D: -4
O=C(O)C(C=C(Cl)Cl)N1CCOCC1 (stereo unspecified)
  A: 1%; B: -3%; C: -20%; D: -10
CC(C(=O)N1CCOCC1)N1C(=O)c2ccccc2C1=O (stereo unspecified)
  A: -2%; B: 0%; C: -11%; D: -4
CC1=C(C(N)=O)C(c2cccc(OCc3ccccc3)c2)n2nnnc2N1 (stereo unspecified)
  A: 1%; B: i; C: 19%; D: -3
COc1ccc2cc3cc(C(=O)NCCCN4CCc5ccccc5C4)sc3nc2c1
  A: -1%; B: -10%; C: -1%; D: 0
COC(=O)c1cc(O)cc(OC)c1C(=O)c1c(O)cc(C)cc1O
  A: -1%; B: u; C: 10%; D: 1
Cc1sc2ncn(CC(=O)NCCCC(=O)N3CCC(C(N)=O)CC3)c(=O)c2c1C
  A: -2%; B: -2%; C: 21%; D: 2
N#CC(CCc1ccc([N+](=O)[O-])cc1)(CCc1ccc([N+](=O)[O-])cc1)C(N)=O
  A: u; B: 5%; C: -4%; D: -6
CC(=O)c1c(C)[nH]c(C(=O)COc2ccc3ccc(=O)oc3c2)c1C
  A: 90%[activator]; B: u; C: -26%; D: 4
COc1cc(C(=O)NCc2cccc3ccccc23)ccc1OCc1ccccc1
  A: 45%[activator]; B: 1%; C: 7%; D: 1
CC1CCCN(C(=O)COC(=O)Cc2c(F)cccc2Cl)C1 (stereo unspecified)
  A: 0%; B: -4%; C: -2%; D: 6
O=C(O)COCCN1CCN([C@@H](c2ccccc2)c2ccc(Cl)cc2)CC1
  A: x; B: x; C: -6%[20 µM]; D: x
Cc1nn(C)cc1S(=O)(=O)NCc1ccc2c(c1)OCO2
  A: 0%; B: -1%; C: 3%; D: 8
NNC(=O)c1nc(-c2ccccc2)cc(-c2ccccc2)n1
  A: -1%; B: -6%; C: 12%; D: -2
COc1ccc(/C=C2/Sc3ccc(C(=O)NCCN4CCCCCC4)cc3NC2=O)cc1
  A: 8%; B: 7%; C: 5%; D: 3
Cc1ccc(S(=O)(=O)N(C)C)cc1N
  A: -5%; B: 5%; C: 0%; D: 2
N#Cc1ccc(/C=N/NC(=O)c2cc(-c3cccs3)nc3ccccc23)cc1
  A: 18%; B: -1%; C: 0%; D: -4
CCCCN(C)CCNC(=O)c1cc(-c2ccc(Cl)s2)nc2ccccc12
  A: 0%; B: i; C: -1%; D: -4
CC1CCN(S(=O)(=O)c2cn(CC(=O)Nc3cccc(C#N)c3)cn2)CC1
  A: -2%; B: -4%; C: -3%; D: 4
O=c1c2cc(Cl)cc(Cl)c2nc2n1CCC2
  A: -3%; B: 3%; C: -2%; D: 2
Cc1noc(C)c1CSCC(=O)Nc1nc2c(F)cc(F)cc2s1
  A: 29%; B: u; C: 4%; D: -13
Cc1cc(C(=O)NCc2ccccc2Cl)c2c(C)nn(-c3cccc(F)c3)c2n1
  A: 2%; B: -3%; C: -6%; D: 1
NC(=O)c1ccccc1OCc1cccc2ccccc12
  A: -1%; B: -1%; C: 0%; D: 5
N#CC(CCc1ccccc1[N+](=O)[O-])(CCc1ccccc1[N+](=O)[O-])C(N)=O
  A: 6%; B: 0%; C: -4%; D: -1
CN1C(=O)/C(=C/c2ccco2)SC1=Nc1cccc(C(=O)O)c1
  A: x; B: -13%; C: -10%; D: -12
c1ccc(CSc2nc3ncccc3[nH]2)cc1
  A: -1%; B: -2%; C: -1%; D: -9
Cc1ccc(NC(=O)C(C)Sc2nnc(C)n2CC2CCCO2)cc1 (stereo unspecified)
  A: 2%; B: -2%; C: 9%; D: 4
CC(C)[C@H](NC(=O)Cc1ccccc1)C(=O)OCc1cc(=O)n2c(n1)sc1ccccc12
  A: u; B: -15%; C: -15%; D: -18
COc1cccc(/C=C/c2nc(C#N)c(N3CCCCC3)o2)c1
  A: -3%; B: i; C: 6%; D: -3

These rows are one share of the data; count on the stated rates, not on these rows.
